# Arbovirus anti = antivirals against arbovirus infection; arbovirus infection cell-based antiviral screen; inhibition, % at 10 µM; actives 0.37% (n = 200,000);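 active means inhibition from about 30%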;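 further: bluetongue infection of BSR cells; cell survival read as ATP light after 72 h; 0% = infected wells without compound and 100% = uninfected wells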
# RecA intein inh = inhibitors of M. tuberculosis RecA intein splicing; P9WHJ3; cell-free RecA intein splicing, fluorescence; AID 2221; actives 0.75% (n = 290,000); inhibition, %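 (about 9 µM by stock and volumes)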; in the data active means inhibition above about 30%; inconclusive means no clear call, values can overlap the other calls;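 further: 0% = vehicle wells and 100% = reference inhibitor control wells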
# Target sequence (P9WHJ3 whole entry, looked up): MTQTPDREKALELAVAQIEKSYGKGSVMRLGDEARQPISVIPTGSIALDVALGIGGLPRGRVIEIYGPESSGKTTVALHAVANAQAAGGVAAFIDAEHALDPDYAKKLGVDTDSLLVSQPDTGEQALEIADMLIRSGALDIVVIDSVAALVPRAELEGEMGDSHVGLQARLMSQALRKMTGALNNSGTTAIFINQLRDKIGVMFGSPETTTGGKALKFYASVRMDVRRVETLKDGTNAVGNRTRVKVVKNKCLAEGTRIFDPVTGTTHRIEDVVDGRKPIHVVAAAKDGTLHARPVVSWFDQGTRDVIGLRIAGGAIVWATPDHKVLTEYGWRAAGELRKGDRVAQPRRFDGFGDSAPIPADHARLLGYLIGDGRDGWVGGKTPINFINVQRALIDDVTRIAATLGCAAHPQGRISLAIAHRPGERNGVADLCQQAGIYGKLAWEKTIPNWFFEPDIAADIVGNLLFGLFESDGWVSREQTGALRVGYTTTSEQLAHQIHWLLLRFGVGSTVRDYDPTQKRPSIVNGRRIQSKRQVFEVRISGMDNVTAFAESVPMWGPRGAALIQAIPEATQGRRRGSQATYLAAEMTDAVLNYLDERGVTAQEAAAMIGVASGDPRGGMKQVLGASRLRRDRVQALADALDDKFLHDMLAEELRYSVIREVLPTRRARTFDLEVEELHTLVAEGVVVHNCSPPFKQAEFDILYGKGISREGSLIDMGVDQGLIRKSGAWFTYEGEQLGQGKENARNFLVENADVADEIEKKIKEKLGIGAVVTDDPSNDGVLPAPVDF
# YopH inh = YopH (Yersinia) phosphatase inhibition; actives 0.16% (n = 140,000); fluorescence Ex485/Em525; inhibition, %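 (about 10 µM by stock and volumes)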;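 active means inhibition of 50% or more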;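 further: controls were vehicle for no effect and minimum signal wells for full effect; inactives centre near -20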
# Mtb betalactam = beta-lactam sensitization of Mtb H37Rv. M. tuberculosis H37Rv growth with meropenem, percent inhibition; hits of this screen are not shown here. inhibition, % at 25 µM. actives 0.27% (n = 330,000). AID 434955;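 active means about 74% or more and at least 40 points above the plate without the antibiotic, then above 30% in a dose series; inconclusive means first-round hits that could not be retested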;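 further: growth measured after seven days incubation then overnight dye step; 0% = bacteria only wells and 100% = bacteria with antibiotic; twin plates without the antibiotic show which effects depend on it; some results filed as inactive read as strong as hits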
# Mtb H37Rv = M. tuberculosis H37Rv growth inhibitors, H37Rv strain (AID 1626); M. tuberculosis H37Rv growth inhibition; higher % means a stronger effect; one-dose inhibition, % at 10 µM; IC50 in µM for titrated hits; actives 0.95% (n = 220,000);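 active means confirmed in a dose series; inconclusive means inhibition above 80% but not taken into the dose series; inactive means below 80% or under 30% at every dose of the series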;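 further: bacteria incubated seven days before Alamar blue readout; 0% = bacteria only wells and 100% = bacteria with antibiotic wells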
# Arbovirus anti repeat = further read-out of Arbovirus anti, marked with its call; inhibition, %; measured here: 10K subset replicate screen; many hits read low in the repeat;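 first of two repeat runs on a subset; 0% = infected and 100% = uninfected wells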
# * marks the source's active call; other numbers are inactive results; ? = inconclusive; / = not tested or not shown. Only part of the results is shown; rates above refer to the full screens.
SMILES,Arbovirus anti,RecA intein inh,YopH inh,Mtb betalactam,Mtb H37Rv,others
CC(C(=O)c1c[nH]c(C(N)=O)c1)c1ncc(C(F)(F)F)cc1Cl (stereo not drawn),25,-1.7,/,-2,-8%,
CNC(=O)CN(C1CCCCC1)S(=O)(=O)c1ccc(OC)c(Cl)c1,4,-6.2,-8,2,-4%,
C=CCn1c(=O)c2ccccc2n2c(SCc3nc(N)nc(Nc4ccccc4C)n3)nnc12,-2,/,-34,-6,-2%,
Cc1ccc(C)c(N(C)C(=O)CCS(=O)(=O)c2cccc3nonc23)c1,/,5.3,/,7,/,
Cc1cccc(C(=O)Nc2ccccc2-c2nnn(CC(=O)Nc3ccc4c(c3)OCCO4)n2)c1,-2,-1.8,-37,4,-4%,
Cc1cc(C)c2c3c(sc2n1)C(=O)N(Cc1ccccc1)CC(=O)N3,-7,-1.4,-22,6,-2%,
C=C1CC(C(=O)N/N=C/c2ccccc2)C1,2,3.8,-14,3,3%,
COc1cc(/C=N/NC(=O)C(=O)NCc2ccco2)ccc1O,-3,-1.3,3,24,58%,
C[C@@]12C(=O)N(CC3CC3)CC(=O)N1[C@H](C1CC1)[C@@H]1C(=O)N(c3ccccc3)C(=O)[C@@H]12,/,0.3,/,-2,/,
O=C(Nc1ccc2c(c1)OCO2)C1Cc2ccccc2CN1S(=O)(=O)c1cccs1 (stereo not drawn),-6,-0.9,-42,-7,-6%,
COc1cc(C(=O)Nc2cc(C)ccn2)ccc1OCC(=O)N1CCOCC1,/,-2.9,/,-4,/,
O=C(CCCCn1c(=O)c2ccccc2n(CC(=O)Nc2ccc(F)cc2)c1=O)NCc1ccco1,-6,-4.0,-27,0,2%,
Cc1nn(C)c(C)c1S(=O)(=O)N(CC(=O)NCCN1CCOCC1)c1ccc(C(C)C)cc1,5,/,-18,-4,-5%,Arbovirus anti repeat=0
COc1ccc(NC(=O)c2cc(-c3ccc4c(c3)OCO4)on2)cc1OC,/,-0.1,/,15,/,
O=c1cc(C(F)(F)C(F)F)oc2ccccc12,6,-1.8,-2,-3,-5%,
Cc1cc(C)c(/C=N/n2c(C)cc(C)c(C#N)c2=O)c(C)c1,3,0.6,-14,2,7%,
COc1ccccc1N1CCN(C(=O)C2CCN(C(=O)c3cccc(Cl)c3)CC2)CC1,/,0.0,/,1,/,
O=C(Cc1ccccc1)Nc1ccc(NC(=O)C2CC2)nc1,2,-2.2,-36,21,6%,
Cc1ccc(C(=O)COC(=O)c2cc(Cl)nc3ccccc23)cc1,-1,-1.0,-9,94,2%,
CN1CCN(C(=O)C2CCCN(S(=O)(=O)c3ccc(Br)cc3)C2)CC1 (stereo not drawn),/,0.6,/,-9,/,
Cc1ccc(CSCC(=O)N/N=C/c2cccc(OC3CSC3)c2)cc1,-2,-0.3,-6,2,4%,
CC(=O)C(C(C)=O)C(NC(=O)c1cccnc1)(C(F)(F)F)C(F)(F)F,8,-1.4,-39,-9,4%,
O=C1CC(c2ccccc2)CC(=O)C1=CN1CCCC1 (stereo not drawn),/,-0.2,/,-4,3%,
O=Cc1c(NCCN2CCCC2)c2ccccc2[nH]c1=O,/,-1.6,/,-4,/,
CNC(=O)/C(C#N)=C\c1ccc(CNS(=O)(=O)c2ccc(Cl)cc2)o1,2,-1.8,/,0,-7%,

# Later entries:
SMILES,Arbovirus anti,RecA intein inh,YopH inh,Mtb betalactam,Mtb H37Rv,others
O=C(Cn1cnc2ccccc21)Nc1cc(C(F)(F)F)ccc1N1CCOCC1,7,2.5,-10,-6,-5%,
Cc1cc(C(F)F)nn1CC(=O)NCc1ccccc1F,1,-1.0,-23,7,-7%,
CC(c1nnc(SCC(=O)N2CC(=O)Nc3ccccc32)n1Cc1ccccc1)N(C)C (stereo not drawn),2,0.3,-3,7,-1%,
COc1cccc(N2CC(C(=O)Nc3nnc(SCC(=O)c4ccccc4)s3)CC2=O)c1 (stereo not drawn),8,94*,6,8,1%,
C=CCN(C(=O)CNC(=O)c1ccco1)C(C(=O)NC1CCCCC1)c1ccc(F)cc1 (stereo not drawn),-4,-0.9,-35,-6,/,
COc1ccc(CNCc2cccc(Cl)c2)cc1,-11,-2.2,-7,-2,-1%,
COC(=O)c1ccc(COc2cccc3c2OC(C)(C)C3)cc1,/,2.5,/,-1,/,
CC(C)Sc1nc2c(c(=O)[nH]c(=O)n2C)n1C,8,9.3,-19,-6,0%,
CCCCN1CCNC1=S,/,0.2,/,1,-2%,
CCCCNC(=O)CCCn1c(=O)c2ccccc2n(CC(=O)NCCC2=CCCCC2)c1=O,-4,1.8,0,/,6%,
Cc1ccc(-c2nnc(Nc3ccc(CC(N)=O)cc3)c3ccccc23)cc1,0,5.1,2,2,21%,
CCOC(=O)c1c(C)n(Cc2ccccc2)c2ccc(OCC(O)CNC(C)(C)C)cc12 (stereo not drawn),/,1.2,/,54,/,
O=C(/C=C/c1ccc(-c2ccccc2)cc1)NCc1cccnc1,/,6.7,/,2,/,
CCn1ccnc1C(O)c1cccc(OC)c1OC (stereo not drawn),6,-1.8,-47,-6,0%,Arbovirus anti repeat=3
CC(=O)N1CCN(c2ccc([N+](=O)[O-])cc2C#N)CC1,15,-7.8,/,-6,6%,
N/C(=N\OS(=O)(=O)c1ccc(Cl)cc1)c1ccncc1,1,2.0,-20,3,-5%,
CCn1ccnc1CN1CCCCC1C(=O)Nc1ccc(Oc2cccnc2)cc1 (stereo not drawn),/,1.7,/,?,/,
CCC1Oc2ccc(C)cc2N(CC(=O)N(Cc2cccnc2)Cc2cccc(F)c2)C1=O (stereo not drawn),6,3.9,-13,6,-7%,
CCCn1c(=N)n(CC(O)c2ccco2)c2ccccc21 (stereo not drawn),1,1.8,-35,-16,-7%,
CCOc1ccc(Cl)cc1S(=O)(=O)N1CCC(C(=O)N2CCCC2)CC1,/,0.5,/,3,/,
CCn1cc(S(=O)(=O)c2ccc(C)cc2)[nH]c1=O,-4,2.2,/,-1,2%,
COc1ccc(/C(C)=N/NC(=O)c2ccncc2)cc1,/,-3.0,/,98,/,
O=C(NCC1CCCCC1)c1cccc(S(=O)(=O)NCc2cccnc2)c1,0,-0.9,/,-3,2%,
Oc1c(/C=C/C=C/C=Nc2ccccc2)sc(=S)n1Cc1ccccc1,/,12,/,21,-11%,
COCCCNC(=O)c1ccc2c(c1)ncn2-c1ccccc1OC,-2,1.0,-44,10,1%,

# More results
SMILES,Arbovirus anti,RecA intein inh,YopH inh,Mtb betalactam,Mtb H37Rv,others
CNC(=O)CC1C(=O)N(C)C(=S)N1NC(=O)c1ccc(Cl)cc1 (stereo not drawn),1,-0.8,-20,2,-3%,
CCOC(=O)C(=CNc1nc(-c2ccc3ccccc3c2)cs1)C(=O)OCC,/,-2.2,/,2,/,
COc1ccc(-n2nnnc2/C=C\Nc2ccccc2C(=O)c2ccccc2)cc1,-22,-2.8,-19,?,-12%,
Cc1ccc(C)c(OCC(=O)Nc2ccccc2N2CCCC2)c1,/,18,/,?,/,
Cc1ccc(N/C(N)=N/c2nc(C)cc(C)n2)cc1,-7,4.9,-25,99,-3%,
O=C(NCCc1ccc(Cl)cc1)c1ccc(CS(=O)Cc2ccc(Cl)cc2)o1 (stereo not drawn),/,1.4,/,91,/,
Cn1c(=O)c2c(ncn2CC(=O)N2CCN(c3ccccc3)CC2)n(C)c1=O,2,0.9,5,-3,-2%,
COc1ccc(NC(=O)COC(=O)CCc2cc(OC)c(OC)c(OC)c2)c([N+](=O)[O-])c1,/,1.1,/,2,/,
CSCCC(C(=O)N1CC2(C)CC1CC(C)(C)C2)N1C(=O)c2ccccc2C1=O (stereo not drawn),-7,5.1,-4,1,-4%,
CCC(C)C(NC(=O)C1CCC(=O)N1C(=O)OCc1ccccc1)C(=O)NC(Cc1ccccc1)C(N)=O (stereo not drawn),/,6.8,/,-2,/,
O=[N+]([O-])c1cccc(OCC(O)CN2CCN(S(=O)(=O)c3cc(Cl)ccc3Cl)CC2)c1 (stereo not drawn),/,-0.3,/,27,/,
CCN1CCN(c2oc(-c3ccco3)nc2C#N)CC1,/,-8.8,/,7,1%,
CCOCCN1CCN(c2nnc3n2-c2ccc(Cl)cc2C(c2ccccc2Cl)=NC3)CC1,4,-1.0,7,-2,/,
CC(=O)c1ccc(C(=O)N2CCCC(CNC(=O)c3ccccc3Cl)C2)cc1 (stereo not drawn),/,0.9,/,?,/,
COc1ccc(CCN2C(=O)CS/C2=N/NC(=O)c2ccccc2F)cc1OC,6,-2.1,-31,4,-4%,
CCCOc1ccccc1/C=C1\SC(N)=NC1=O,/,-2.7,/,-3,/,
CCOC(=O)CSC1=C(C#N)C(c2ccc(C)o2)CC(=O)N1 (stereo not drawn),-3,-0.1,-19,3,3%,Arbovirus anti repeat=-6
COc1cccc(CNC(=O)CCC2CCCN(c3cc(C)nc(N(C)C)n3)C2)c1 (stereo not drawn),6,-0.2,/,-2,-4%,
CC(Sc1nc2cc([N+](=O)[O-])ccc2n1-c1ccc(F)cc1)C(=O)NCc1ccc2c(c1)OCO2 (stereo not drawn),-5,2.1,-11,0,12%,
COc1ccc(C(=O)OCCc2sc[n+](CC(=O)c3ccccc3)c2C)cc1,/,-1.0,/,-6,/,
Cc1ccc(-c2onc(C)c2C)cc1S(=O)(=O)N1CCOc2ccccc21,/,11,/,4,/,
O=C(CC(=O)N/N=C/c1c(F)cccc1Cl)NCc1ccccc1,-3,2.5,/,2,-5%,
CC(C)CC(=O)NC(=S)Nc1ccccc1F,1,0.9,-9,-1,7%,
CCOC(=O)/C(N=Nc1ccc(Cl)cc1)=C(/O)c1ccc([N+](=O)[O-])cc1,-21,2.7,49,2,/,
Nc1cc(-c2ccc(Cl)cc2)nn1S(=O)(=O)c1cccc2nsnc12,-10,19,-42,-10,12%,

# Continued:
SMILES,Arbovirus anti,RecA intein inh,YopH inh,Mtb betalactam,Mtb H37Rv,others
CCOC(=O)C(O)(CC(=O)Nc1cc(F)ccc1C)C(F)(F)F (stereo not drawn),-5,/,33,-10,-2%,
CCn1c(C)cc(O)c(C(=O)Nc2cccc(Cl)c2)c1=O,/,1.2,/,0,/,
CN(C)c1ccc(N2[C@@H](CC(=O)O)c3cc(C(F)(F)F)ccc3S2(=O)=O)cc1,/,-2.8,/,-6,-14%,
Cc1cc(C)cc(NC(=O)CCC(=O)Nc2cc(C)on2)c1,1,-0.3,-33,32,23%,
O=C(Nc1ccc(Cl)cc1)c1cc2nc(C3CC3)cc(C(F)(F)F)n2n1,0,-5.3,-3,-2,-2%,
CCOc1ccc(/C(O)=C2\C(=O)C(=O)N(CCN(C)C)C2c2cccc(OC)c2OC)cc1Cl (stereo not drawn),4,1.7,-13,3,-3%,
Cc1[nH]oc(=O)c1N=Nc1ccc2[nH]c(=O)[nH]c2c1,/,3.3,/,57,/,
CN(Cc1cn(-c2ccccc2)nc1-c1ccc2c(c1)OCO2)Cc1nccn1C,-5,0.9,/,95,3%,
CCO[C@@H]1OC(C(=O)NCc2nc3ccccc3[nH]2)=C[C@H](c2ccc(C(F)(F)F)cc2)[C@H]1CCCO,-15,3.1,/,99,2%,
